Autofluor counter: compound fluorescence in toxin protease inhibitor counterscreen. compound autofluorescence counterscreen, microsphere flow cytometry; stronger effect = higher value. fluorescence intensity (no concentration beside the values). 3.1% of 360,000 active;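 active = at least 3 SD above the mean of all compounds, about 16000 in these data; inconclusive = too few beads counted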;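 also: 100 nL of 1 mM stock went into each well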
Mtb hypoxia inh: PubChem AID 1159583. M. tuberculosis hypoxia-regulated fluorescent reporter, fluorescence. fluorescence inhibition, % (no concentration beside the values). 0.1% of 300,000 active;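 active = 35 to 45% if threefold the growth effect, above 45% if 1.5-fold the growth effect; inactive = the rest, general growth blockers included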;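 also: wells of about 50 µL received 100 nL stock; 0% = vehicle wells and 100% = reference inhibitor wells; whole bacteria with a GFP reporter of the hypoxia response; strong numbers were not always called active; many hits fall short of the cut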
BJeLR lethal: MLPCN primary cell-based screen for lethality selective to Ras in HRASV12 cells; BJeLR (HRASV12) viability, CellTiter-Glo ATP luminescence, 48 h; reference of the scale not given here; inhibition, % (concentration not given with the values); 0.17% of 300,000 active; AID 1554, 2009;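 active = replicate mean above 50%; inconclusive = above 50% but judged a plate artefact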;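 also: 50 nL library stock added to about 25 µL; numbers are from one replicate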
ugtP null kill: growth inhibition of ugtP-null S. aureus, primary screen, RN4220 ugtP deletion, OD600. 16 h; some inactives read as strong as hits. growth inhibition, % (no concentration beside the values). 0.54% of 330,000 active. AID 1259309, 2017;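 active = z-score under -3 and OD600 up to 0.15 on both plates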;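 also: plate controls were untreated wells for no effect and antibiotic for full effect; wells of about 80 µL received 100 nL stock; the first replicate is given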
PrP 5UTR inh: inhibition of PrP 5' UTR reporter expression; cell-based PrP 5' UTR mRNA reporter, plate reader; inhibition, % (concentration not given with the values); 0.35% of 340,000 active; AID 488862, 2010;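 active = every replicate at 50% or more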;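 also: 0 = median of the neutral control wells; tested in H4 reporter cells; numbers are from one replicate; inactives centre near -14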
RN4220 kill: growth inhibition of S. aureus RN4220, primary screen, OD600; 0.33% of 330,000 active; 16 h; inhibition, % (no concentration beside the values);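 active = z-score of -3 or lower and OD600 up to 0.18 on both plates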;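 also: plate controls were untreated cells for no effect and reference antibiotic for full effect; stock transfer was 100 nL into about 80 µL; one replicate is shown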
Mtb hypoxia inh growth: also measured in Mtb hypoxia inh; calls as there; growth inhibition, %; measured here: M. tuberculosis growth (absorbance);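 0% = vehicle and 100% = reference antibiotic; read after six days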
An asterisk follows results filed as active; u = inconclusive; x = not tested or not shown. Compounds were not picked by outcome; about 4.1% have a hit in one of these screens.

Structure	Autofluor counter	Mtb hypoxia inh	Mtb hypoxia inh growth	BJeLR lethal	ugtP null kill	PrP 5UTR inh	RN4220 kill
O=[N+]([O-])c1ccc2nonc2c1Nc1ccccc1	3853	14	10	-6	18	-8	7.6
COc1ccc(C(=O)NCCn2nc(C)cc2C)cc1OC1CCN(C(C)=O)CC1	u	7	9	-3	0	-12	-1.9
Cc1ccsc1/C=N/NC(=S)NCc1ccccc1	4204	x	x	-14	x	-2	x
COc1cc(NC(=O)NCC2CCN(Cc3ccccc3F)CC2)cc(OC)c1	3540	7	9	-5	10	-9	1.9
O=C(CSc1ccc(Cl)cc1)NC(=O)NC1CCCC1	15027	2	-15	x	-8	-1	-0.8
COc1ccc(NC(=O)COC(=O)C2=COCCO2)cc1OC	4030	10	13	2	11	-88	-1.3
CCCCNC(=O)/C(C#N)=C/c1ccc(-c2ccc(S(=O)(=O)N3CCOCC3)cc2)o1	2709	-3	2	0	-7	-3	1.9
CCN(c1ccccc1)S(=O)(=O)c1ccc(Cl)c(NC(=O)c2ccc(=O)[nH]n2)c1	2890	23	0	x	0	-11	4.6
COP(=O)(OC)c1nc(-c2cccc3ccccc23)oc1N1CCCCC1	4389	4	9	-5	-4	-38	3.7
CCC(C)[C@@H](CN(N=O)[C@@H](Cc1ccccc1)CN(C)N=O)N(CCc1ccccc1)N=O (some centres not stated)	4032	x	x	1	x	-17	x
COc1ccc(CC(C)NCCc2ccc(OC)c(OC)c2)cc1 (configuration not stated)	3873	3	-2	-3	-1	0	0.2
COc1cccc(NS(=O)(=O)c2ccc3c(c2)N(C(C)=O)CCS3)c1	5153	3	14	4	-11	-3	-1.2
COc1ccc(C(=O)N/N=C/c2ccc(N3CCOCC3)o2)cc1OC	2059	x	x	4	x	-14	x
CN(C)c1ccc(/C=N\Nc2nc(-c3ccccc3)cc(=O)[nH]2)cc1	2185	x	x	-23	x	-9	x
Cn1c(=O)c2c(nc(CN3CCC(C(N)=O)CC3)n2Cc2c(Cl)cccc2Cl)n(C)c1=O	6347	-1	-1	-1	8	-16	6.4
OCCN(CCO)Cc1csc2ccccc12	2065	8	1	8	3	-9	3.7
NC(=O)c1ccsc1NC(=O)COC(=O)c1ccccc1F	3968	2	5	x	0	-10	0.6
Cc1cccc(C)c1NC(=O)CN(C)CC(=O)Nc1cc(Cl)ccc1C#N	4419	x	x	4	-2	1	3.6
O=c1[nH]c(=S)[nH]c(O)c1/C=C1/C=c2ccccc2=N1	x	2	-8	11	0	-10	-0.2
CCOc1ccc(S(=O)(=O)NCCC(=O)N2CCN(c3ccccc3O)CC2)cc1	4993	-6	0	-6	-2	0	-0.1
CC(C)c1onc(C(=O)N2CCCCC2)c1[N+](=O)[O-]	1998	10	3	-10	-3	-20	11
Cc1cccc(NC(=O)CSc2nnc(CNC(=O)c3ccc(S(=O)(=O)N(C)C)cc3)n2-c2ccc(F)cc2)c1	10706	-1	1	14	10	-5	4.4
COc1ccc(NC(=O)ON=Cc2ccc(Br)cc2)cc1	x	14	6	x	5	x	5.5
CCn1cc(C2=NC(C(C)C)CO2)c2ccccc21 (configuration not stated)	4385	1	1	-7	10	-11	-1.5
O=C(COC(=O)c1cccc(O)c1)Nc1ccc(S(=O)(=O)N2CCOCC2)cc1	2907	-2	-2	x	6	1	3.0
CC1(S(=O)(=O)O)CC(=O)c2ccccc2C1=O (configuration not stated)	4194	9	3	-6	13	-17	24
COc1cc(NC(=O)Cn2cnc(S(=O)(=O)N3CCCC3)c2)cc(OC)c1OC	5480	-1	4	1	9	-12	3.2
O=[N+]([O-])c1ccc(N/N=C\c2cccn2-c2ccccc2)nc1	2985	x	x	-9	x	3	x
Cc1ccc(N(C(C)C(=O)N2CCN(Cc3ccccc3)CC2)S(C)(=O)=O)cc1 (configuration not stated)	3555	-3	-1	7	-1	6	-4.1
COc1ccc(CCNC(=O)c2ccc(N(C)S(=O)(=O)c3ccc(C)cc3)cc2)cc1OC	4114	-1	-6	3	2	6	4.7

Continued.
Structure	Autofluor counter	Mtb hypoxia inh	Mtb hypoxia inh growth	BJeLR lethal	ugtP null kill	PrP 5UTR inh	RN4220 kill
O=C(NCCCN1CCOCC1)c1cc(S(=O)(=O)N2CCN(c3ccccc3)CC2)ccc1Cl	5589	7	4	5	3	-17	3.0
Cc1nc(C)c(C(=O)OC(C)C(=O)Nc2ccc(F)cc2)s1 (configuration not stated)	x	12	4	x	3	x	3.0
COc1ccc(OC)c(CN2CCN(C(=O)CNC(=O)c3cc(C)cc(C)c3)CC2)c1	u	3	11	x	-2	-17	-4.5
COc1cc(OC)c(C(=O)NNC(=O)CN(C)S(=O)(=O)c2ccc(Cl)cc2)cc1OC	5644	-3	-5	-8	6	-13	2.1
Cc1cccc(C)c1OCc1nnc(NC(=O)CSc2ccc(Cl)cc2)s1	10030	7	6	-14	5	4	3.4
c1coc(-c2ccnc(-c3ccncc3)n2)c1	3162	6	2	0	5	-35	2.5
Cc1noc(C(=O)N2CCN(Cc3ccc4c(c3)OCO4)CC2)c1Cl	5165	20	15	21	12	-33	5.4
COc1ccc(C(=O)NCC(=O)N2CCN(c3ccc(Cl)cc3)CC2)cc1	3657	-3	9	2	13	-21	5.2
COc1ccc(Br)cc1C=Nn1c(-c2ccccc2)n[nH]c1=S	x	20	4	x	0	x	2.5
CCOC(=O)[C@]12Cc3ccsc3C1N(Cc1ccccc1)C(=O)c1ccccc12 (some centres not stated)	x	6	5	x	9	x	7.5
CCCc1cc(C(=O)N2CCCC(CO)(CCCc3ccccc3)C2)n(C)n1 (configuration not stated)	u	5	-4	-7	8	-8	5.7
Cc1onc(-c2c(Cl)cccc2Cl)c1C(=O)NNC(=O)c1c(-c2c(Cl)cccc2Cl)noc1C	5531	8	2	3	-8	-34	5.1
CC(C)CCn1c(N)c(C(=O)NCc2cccs2)c2nc3ccccc3nc21	10773	1	4	7	-23	-26	6.2
Cc1ccc(OCCC(=O)OCC(=O)Nc2ccc3c(c2)OCO3)cc1	6197	7	7	1	5	-10	2.7
CC1(c2ccc(OC(F)F)cc2)NC(=O)N(CC(=O)N2CCN(C(=O)c3ccco3)CC2)C1=O (configuration not stated)	5880	6	1	x	11	-25	2.4
CC(=O)NNC(=O)c1ccncc1	5903	-7	-9	-14	-1	-52	-1.3
COc1ccc(/C=C/C(=O)Nc2cccc(S(=O)(=O)NC3=NCCCCC3)c2)c(OC)c1	3912	3	6	x	12	7	0.6
CSc1nsc(SC)c1C(=O)N1CCN(S(=O)(=O)c2ccc(C)cc2)C1C (configuration not stated)	2396	7	12	0	12	-11	2.9
CCOCCc1nnc(NC(=O)c2cccs2)s1	2959	x	x	-13	4	-8	2.8
CCCC(C(=O)NCc1ccc(OC)cc1)N(Cc1ccco1)C(=O)c1snc(C(N)=O)c1N (configuration not stated)	10401	16	11	-7	-3	-3	3.6
Cc1ccc(NC(=O)C2CCCN2C(=O)OCc2ccccc2)cc1F (configuration not stated)	4873	6	-6	-4	11	-1	5.8
CC(=O)NCc1nnc2c3ccccc3c(-c3ccccc3)nn12	2073	15	5	0	4	1	7.2
Cc1c(Cl)cccc1NC(=O)NC1CCCCC1	8993	0	13	-2	-6	-1	2.2
C=CCCC(=O)NC1CC(C)(C)Cc2c1cnn2-c1cccc(F)c1 (configuration not stated)	3310	-12	9	-11	6	-13	4.3
CCOC(=O)c1cc2sccc2n1CC(=O)Nc1ccc2c(c1)OCCO2	10393	1	11	-5	-2	-30	3.0
CC(C)c1ccc(NC2CCCN(C(=O)c3cccs3)C2)cc1 (configuration not stated)	6048	1	6	1	8	-2	3.5
OCCCn1c(C2CCCN2c2nc(-c3ccc(Cl)cc3)cs2)nc2cc(Cl)c(Cl)cc21 (configuration not stated)	3055	6	0	-10	-7	-9	-7.8
CCCC#CCN1CCN(C23CC4CC(CC(C4)C2)C3)CC1	3636	15	10	3	5	-22	1.6
Cc1ccc(-n2c(SCC(N)=O)nc(O)cc2=O)cc1	2082	x	x	-1	7	-3	6.7
Nc1ccc(S(=O)(=O)Nc2ccc(Cl)nn2)cc1	3422	x	x	4	6	x	2.1

Full records as entered above. Order of screens: Autofluor counter | Mtb hypoxia inh | Mtb hypoxia inh growth | BJeLR lethal | ugtP null kill | PrP 5UTR inh | RN4220 kill
`Cc1ccc(NC(=O)C2CCCN2C(=O)OCc2ccccc2)cc1F` (configuration not stated) in the list: 4873 | 6 | -6 | -4 | 11 | -1 | 5.8
`COc1ccc(/C=C/C(=O)Nc2cccc(S(=O)(=O)NC3=NCCCCC3)c2)c(OC)c1` in the list: 3912 | 3 | 6 | x | 12 | 7 | 0.6

Carrying on:
Structure	Autofluor counter	Mtb hypoxia inh	Mtb hypoxia inh growth	BJeLR lethal	ugtP null kill	PrP 5UTR inh	RN4220 kill
CC(=O)Nc1ccc(OCC(O)CN2CCN(c3ccc(Cl)cc3)CC2)cc1 (configuration not stated)	4485	x	x	3	7	-6	3.2
CC1CCCCN1Cc1nc2c(c(=O)n(C)c(=O)n2C)n1CCc1ccccc1 (configuration not stated)	2460	x	x	2	-1	-4	3.9
Cc1nc(Nc2nc3c(c(=O)[nH]2)CCC3)nc2ccccc12	4200	-10	8	14	3	-29	4.7
Cc1cc(NC(=NS(=O)(=O)c2ccc(F)cc2F)c2ccccc2)no1	x	1	3	x	8	x	3.2
COc1cccc(NC(=O)C(=O)NCCC2CCCCN2S(=O)(=O)c2cccs2)c1 (configuration not stated)	4762	-3	0	7	8	-102	0.4
COc1ccccc1CNC(=O)CCN1C(=O)COc2ccc(C)cc21	21217*	5	8	1	-7	-6	2.1
Cc1ccc(-c2noc(CCC(=O)NC3CCCc4ccccc43)n2)cc1 (configuration not stated)	4090	x	x	0	1	-20	7.2
Cc1ccc(C(=O)NCc2ccco2)c(C)c1	3693	23	17	3	5	-36	6.2
CCOC(=O)Cc1nnc(NC(=O)CSc2nc3ccccc3[nH]2)s1	3895	8	1	-11	1	-11	7.3
COc1cccc(/C=C/C(=C2\C(=O)N(c3ccccc3)N=C2C)c2ccc(Br)cc2)c1OC	9227	0	3	x	4	8	0.5
O=S(=O)(NCc1ccncc1)c1ccc(Br)s1	2095	x	x	11	10	-17	0.0
CCN(CC(=O)N(CC(C)C)c1c(N)n(CC(C)C)c(=O)[nH]c1=O)Cc1nc2ccccc2c(=O)[nH]1	4203	13	3	-3	4	-15	3.5
Cc1ccc(C(C)C)c(OCCCN(C)Cc2ccccc2)c1	2437	1	4	4	16	10	4.2
CC(C)Oc1nnnn1-c1ccccc1	3060	8	0	0	0	-2	4.4
Cc1ccc(Nc2nc(N)nc(CSc3nnc(C)s3)n2)cc1	6197	-10	3	-4	-3	-65	8.8
O=C(O)c1ccc2c(=O)n(-c3ccccc3F)c(=S)[nH]c2c1	4406	-12	-7	2	4	-2	7.7
CCOC(=O)C1(CCOc2ccccc2)CCN(Cc2cnc(SC)nc2)CC1	4749	3	15	-5	1	-29	6.5
CN1CCN(S(=O)(=O)c2csc(C(N)=O)c2)CC1	4553	2	-14	6	11	-6	6.2
O=C(CCc1nnc2ccc(NCc3ccccc3Cl)nn12)NCC1CCN(C2CCCC2)C1 (configuration not stated)	7141	-1	-5	-8	2	-16	0.8
CC1CCN(S(=O)(=O)c2cnc(Cl)c(Br)c2)CC1	1987	5	-3	-4	4	-10	1.4
CC1CCN(S(=O)(=O)c2cc3c4c(c2)C(C)C(=O)N4CCC3)CC1 (configuration not stated)	5483	-4	1	-4	-1	-30	6.6
NC(=O)c1ccc(N=Cc2c(O)n(Cc3ccco3)c(=O)[nH]c2=O)cc1	5082	x	x	8	x	-10	x
Cn1c2ccccc2c2cnn(CC(=O)Nc3cccc(F)c3)c(=O)c21	4909	-5	-1	-5	-2	-18	1.5

Only Mtb hypoxia inh, PrP 5UTR inh and RN4220 kill (5 entries from above):
Structure	Mtb hypoxia inh	PrP 5UTR inh	RN4220 kill
CN1CCN(S(=O)(=O)c2csc(C(N)=O)c2)CC1	2	-6	6.2
O=C(CCc1nnc2ccc(NCc3ccccc3Cl)nn12)NCC1CCN(C2CCCC2)C1 (configuration not stated)	-1	-16	0.8
CC1CCN(S(=O)(=O)c2cnc(Cl)c(Br)c2)CC1	5	-10	1.4
CCN(CC(=O)N(CC(C)C)c1c(N)n(CC(C)C)c(=O)[nH]c1=O)Cc1nc2ccccc2c(=O)[nH]1	13	-15	3.5
Cc1ccc(Nc2nc(N)nc(CSc3nnc(C)s3)n2)cc1	-10	-65	8.8
